Vaccinia pol inh – blocks vaccinia virus processive DNA synthesis | 0.94% of 46,000 active | normalized absorbance, % (concentration not given with the values) | in vitro processive DNA synthesis, absorbance read-out; stronger effect = lower value; some inactives read as strong as hits | AID 493162;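 active means replicate mean up to 90% and picked by the depositor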;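 further: 100% = median of the test wells of a plate; 100 nL library stock went into each well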
* marks the source's active call; other numbers are inactive results. Some of the compounds tested; the hit share may differ from the screen's.

SMILES | Vaccinia pol inh
c1ccc2c(c1)nc1n2CN(C2CCCCC2)CN1 | 99
O=C(O)CCC1CCC(=O)N1 (stereo unspecified) | 101
CCN(CCCNc1nc(=S)[nH]c2ccccc12)c1ccccc1 | 102
CCn1c(=O)cc(OCC(=O)NCCCN2CCOCC2)c2ccccc21 | 103
CCOc1ccc(NC(=O)CC2C(=O)N(C)C(=S)N2CCc2ccccc2)cc1 (stereo unspecified) | 100
O=C1OC(Nc2ccc(Cl)c(C(F)(F)F)c2)c2ccccc21 (stereo unspecified) | 120
COCCN1C(=O)C(=O)/C(=C(\O)c2ccc3c(c2)CC(C)O3)C1c1ccc(Cl)cc1 (stereo unspecified) | 106
O=C(NCCN1CCCCC1)Nc1cccc2ccccc12 | 94
Cc1cc(-n2cnc(-c3cnoc3C)n2)no1 | 101
O=C(NC1CCCCC1)c1snc2ccc(Cl)cc12 | 83
O=C(CSc1ncn[nH]1)c1ccccc1 | 93
COc1ccc(CNC(=O)C2C3CCC(O3)C2C(=O)O)cc1 (stereo unspecified) | 95
O=C(CCc1[nH]c2ccccc2c1Sc1ccccc1)N(CCO)CCO | 100
COc1ccc(C(=O)Nc2ccc(-c3nc4cc(C)cc(C)c4o3)cc2)cc1OC | 97
Cc1cccc(C2=NC(C(F)(F)F)(C(F)(F)F)c3c(n(C)c(=O)n(C)c3=O)N2)c1 | 89
Cc1nc2cccc[n+]2c(-c2ccccc2)c1C | 110
COc1ccc(C(C(=O)OCCN(C)C)c2ccccc2)cc1 (stereo unspecified) | 100
O=c1cc(-c2ccccc2)[nH]n1-c1nc2ccccc2s1 | 94
COc1ccc(-n2cc3ccsc3c2)cc1 | 110
CC(C)(C)NC1=C(n2nnc3ccccc32)C(=O)c2ccccc2C1=O | 99
N=C1C(c2nc3ccccc3s2)=C(O)CN1C1CCCCC1 | 98
CC(C)c1cc(CN2CCN(c3ccccc3)CC2)c(O)c(CN2CCN(c3ccccc3)CC2)c1 | 100
Cc1ccc(-n2c(C)cc(/C=C3/C(=O)N(C4CCCCC4)C(=S)N3C)c2C)cc1 | 100
Cc1noc2ncnc(SCc3ccc(Cl)cc3)c12 | 94
Cc1nn(-c2ccccc2)c2sc(C(=O)Nc3ccccc3)cc12 | 85
COCCN(Cc1ccco1)C(=O)c1noc2c1COc1ccc(C)cc1-2 | 109
CNC(=O)COc1ccccc1O | 99
Cc1ccc2nc(SCC(=O)N3CCc4ccccc43)[nH]c2c1 | 95
CCc1ccc(NC(=O)CSc2nc3nccnc3c(=O)n2CCC(C)C)cc1 | 102
O=C(C1Cc2ccccc2CN1S(=O)(=O)c1cccs1)N1CCCCC1 (stereo unspecified) | 97
O=C(CSc1ccc2ccccc2c1)NCCc1ccc(O)c(O)c1 | 97
Cc1csc(NC(=O)CCCC(=O)O)n1 | 101
Cc1ccc(NC(=O)CC2CCC2)cc1C | 100
Cc1c(C)c(C)c(CSCc2n[nH]c(=S)n2-c2ccc(F)cc2)c(C)c1C | 106
CCc1ccc(NC(=O)/C=C/C(=O)O)cc1 | 100
CCC(=O)Nc1sc(Cc2ccccc2)c(C)c1C(=O)OC | 97
CC(C)(C)c1ccc(C(=O)NCC(=O)O)cc1 | 103
COC(=O)c1c(C)n(Cc2ccccc2)c2ccc(O)cc12 | 99
CN=C(N)NCCCC(N)C(=O)O (stereo unspecified) | 97
COc1ccc2c(C)nc(/N=C(N)/N=C(\C)c3ccccc3C(=O)O)nc2c1 | 31*
C[N+]1(CCCCC[N+]2(C)CCCC2)CCCC1 | 100
CC1CC(C)CN(C(=O)C2c3ccccc3C(=O)N(C)C2c2cn(C)c3ccccc23)C1 (stereo unspecified) | 86
CCC(CC)C(=O)Nc1nnc(SCC(=O)Nc2ccc(F)cc2)s1 | 101
CCCCc1c(O)nc(SCCN(C)C)n(-c2ccccc2)c1=O | 100
N#CC1(C#N)[C@@H]2c3ccccc3C=CN2[C@@H](C(=O)c2ccccc2)[C@@H]1c1cccs1 | 100
O=C(NCc1cccs1)c1cccc(S(=O)(=O)N2CCCCC2)c1 | 100
CN(Cc1ccccc1)C(=O)CSc1ccc(Br)cc1 | 95
ClC(Cl)=Cc1nc2ccccc2s1 | 99
NC(=S)Nc1ccccc1 | 100
CCn1c(NCc2ccc3c(c2)OCO3)nc2ccccc21 | 102
CC1CCC(C(=O)NC(Cc2c[nH]c3ccccc23)C(=O)NC2CCCCC2C)CC1 (stereo unspecified) | 102
CCN1C(=O)/C(=C2/C=Cc3ccccc3N2CC)SC1=S | 98
CC(C)(Oc1ccc(Cl)cc1)C(=O)NCC1CCCO1 (stereo unspecified) | 107
Brc1ccc(-c2ccc3ccccc3n2)cc1 | 136
CN1CCN(c2ccc(C(F)(F)F)cc2N)CC1 | 129
O=C(c1cccs1)N1CCSC1=S | 90
Cc1c(C(=O)CSc2n[nH]c(=O)n2C2CC2)sc2ccc(Cl)cc12 | 103
C(=Nc1cnc2ccc3ccccc3c2c1)c1ccco1 | 70
O=C(Cn1c(=O)c2cccn2c2ccccc21)NCc1ccccc1 | 105
CCOc1ccc(-c2nnc(Nc3ccc(OC)cc3)c3ccccc23)cc1 | 100

Further structures.
SMILES | Vaccinia pol inh
NC1=NC(=O)C(Cc2cccc(Cl)c2)S1 (stereo unspecified) | 100
Nc1cc(=O)n2c(n1)SCC2CS(=O)(=O)c1ccccc1 (stereo unspecified) | 98
CC(=O)N1CCc2[nH]c3ccc(C)cc3c2C1 | 100
O=C(O)Cc1cn2ccsc2n1 | 99
O=C(O)CSc1ncnc2sc3c(c12)CCCC3 | 97
O=C(c1cc(S(=O)(=O)N2CCCCC2)c[nH]1)N1CCCC1 | 97
CCc1ccc(NC(=O)c2cc(C)[nH]n2)cc1 | 51
N=C(N=C(N)N)N1N=CCC1c1ccccc1 (stereo unspecified) | 105
Cc1ccc(SCc2cc(=O)[nH]c(Nc3nc4ccccc4o3)n2)cc1 | 100
Cc1ccc(S(=O)(=O)N2C=Cc3ccccc3C2c2c[nH]c3ccccc23)c(C)c1 (stereo unspecified) | 100
CCOC(=O)c1cnc2cc(C)nn2c1-c1ccccc1 | 108
COc1ccc(-c2cc(O)c3c(C)oc(C)c3c(=O)c2)cc1 | 100
CC(C)N(CCc1ccncc1)C(=O)Nc1ccc(F)cc1 | 98
CNc1ccc(C2(O)C(=O)c3ccccc3C2=O)cc1 | 99
c1cnn(-c2cncc(-n3cccn3)n2)c1 | 97
Cn1nc(C(=O)NCCCN2CCN(c3ccccc3)CC2)c2c1-c1ccccc1OC2 | 103
O=C(NC(c1ccccc1)c1ccccc1)C1COC2C=CC=CC2O1 (stereo unspecified) | 101
COC(=O)c1ccccc1NS(=O)(=O)c1c(C)nc2sccn2c1=O | 98
O=c1oc2c(-c3cc(C(F)(F)F)ccc3Cl)cc(O)cc2s1 | 100
CCC(C)C(=O)NCCc1ccccc1 (stereo unspecified) | 99
CCCNC(=O)Cn1cnc2sc(C(=O)N3CCC(Cc4ccccc4)CC3)c(C)c2c1=O | 108
COC(=O)C1=C(N)c2c(F)cccc2C1(C#N)c1ccccc1 (stereo unspecified) | 91
O=C(O)c1ccccc1C(=O)N1CCN(Cc2ccccc2)CC1 | 103
Oc1ccc(-c2cn3c(n2)SCC3)cc1 | 91
O=C(/C=C/c1ccccc1)Nc1ccc2[nH]c(=O)[nH]c2c1 | 100
CC1CN(C2=NCCN2S(=O)(=O)c2ccc(Cl)cc2)CC(C)O1 (stereo unspecified) | 102
N#Cc1ccc(-c2ccccc2)nc1SC(C(=O)O)c1ccccc1 (stereo unspecified) | 98
COC(=O)C1=Cc2cc(OC)ccc2OC1 | 98
O=C(COc1ccc(Cl)cc1)NCCCN1CCN(c2ccccc2)CC1 | 98
Nc1c2c(=O)[nH]c(O)cc2nn1-c1ccccc1 | 107
COc1ccc(-c2ccc(C#N)c(Cl)n2)cc1 | 107
Nc1c(C(=O)Nc2ccc3ccccc3c2)sc2nc3c(cc12)CCC3 | 100
COc1ccc(Cc2c(O)nc(N)[nH]c2=O)cc1 | 100
C(/C=C/c1ccc2c(c1)OCO2)=Nc1ccc(N2CCOCC2)cc1 | 100
CCOC(=O)c1c(NC(=O)CN2C(=O)CCSc3ccccc32)sc2c1CCCC2 | 104
CCc1cccc(CC)c1NC(=O)COC(=O)c1ccncc1 | 84
COc1ccc(NC(=C(C#N)C#N)C(F)(F)C(F)(F)F)cc1 | 100
COC(=O)c1cc(-c2cccc(OC)c2)c2c(=O)[nH]c(=O)n(C)c2n1 | 104
CC(C)(CN1CCCCCC1)NS(=O)(=O)c1ccccc1 | 96
COc1ccc(N2C3=[N+](CC2(C)O)c2ccccc2CC3)cc1 (stereo unspecified) | 100
N#Cc1cccc(N=Cc2ccc3c(c2)OCO3)c1 | 98
CSc1nc2c(Cl)cccc2c2c1c(=O)[nH]n2C | 106
COc1ccc(-c2nn(-c3ccccc3)cc2C(=O)Oc2ccccc2)cc1OC | 100
COc1cc(OC)c(C=Nc2ccccc2)cc1Br | 100
CCOC(=O)C(C(=O)Nc1cccc(C)n1)C1CCCCC1 (stereo unspecified) | 101
c1ccc(-c2ccc3ccccc3n2)cc1 | 98
O=C(CCC1CCCC1)N1CCN(C(=O)COc2ccccc2)CC1 | 94
Cc1cc(C(=O)OCC(=O)Nc2sc3c(c2C#N)CCCC3)c2ccccc2n1 | 102
Cn1c(C(=O)N2CCN(c3ccccn3)CC2)cc2c(=O)n(C)c3ccccc3c21 | 106
CCCc1nnc2c3c4c(sc3ncn12)CCCC4 | 100
CCC(=O)N1CCCc2cc(S(=O)(=O)N3CCN(C4CCCCC4)CC3)ccc21 | 100
CC1CC1C(=O)OCC(=O)NC(c1ccccc1)c1ccccc1 (stereo unspecified) | 100
C[N+](C)(C)[C@H]1C(O)O[C@@H]2C(O)CO[C@@H]21 (stereo partly specified) | 100
Cc1cc(C)n(NC2=CC(=O)CC(C)(C)C2)c(=O)c1C#N | 99
Cc1c(C(=O)/C=C/N(C)C)sc(=S)n1CCc1ccc(Cl)cc1 | 98
Nc1ccccc1-c1nc2cc3ccccc3cc2[nH]c1=O | 96
Cc1ccc(N(CC(=O)NC(c2ccccc2)c2ccccc2)S(=O)(=O)N2CCCC2)cc1 | 101
N#CCc1ccc(C(=O)c2ccc(Cl)cc2Cl)s1 | 100
CCn1c(=O)c(C2=NS(=O)(=O)c3ccccc3N2)c(O)c2ccccc21 | 101
O=C(CC1(O)C(=O)Nc2ccccc21)c1ccccc1 (stereo unspecified) | 106

2 of these compounds in another layout:
Molecule	Vaccinia pol inh
Cc1c(C(=O)CSc2n[nH]c(=O)n2C2CC2)sc2ccc(Cl)cc12	103
Brc1ccc(-c2ccc3ccccc3n2)cc1	136

Carrying on.
SMILES | Vaccinia pol inh
CC(=O)N[N+]1=C(N)c2ccccc2C1 | 100
CCc1ccc(NC(=O)c2cccc3c2C(=O)N(C2CCCCC2)C3)cc1 | 88
Cc1ccc(C)c(OC(=O)NC(C)(C(F)(F)F)C(F)(F)F)c1C | 100
CCC(=O)c1ccc2cc(OC)ccc2c1 | 100
Nc1nonc1OCCNc1ccccc1 | 101
Cc1cc2cc(CNC(=O)COc3ccccc3)ccc2[nH]1 | 101
CN(C)C(=O)Nc1cnccc1C(F)(F)F | 103
CSC(=Nc1cc(C(F)(F)F)cc(C(F)(F)F)c1)N1CCCCC1 | 97
CCn1c2ccccc2c2cc(CN3CCN(C(=O)c4c(OC)cccc4OC)CC3)ccc21 | 100
CC(C)C(=O)Nc1ccc2c(c1)OCCO2 | 104
COC(=O)c1ccc2nc(NC(=O)CN3C(=O)CCC3=O)sc2c1 | 99
CC(CCc1ccccc1)NC(=O)CCc1nnc2ccc(N3CCOCC3)nn12 (stereo unspecified) | 103
Cc1ccc(C(=O)N2CCC(C)CC2)cc1 | 105
N#Cc1c(N)n(-c2ccc(O)cc2)c2nc3ccccc3nc12 | 100
O=C(c1ccc(COc2c(F)c(F)c(F)c(F)c2F)o1)N1CCOCC1 | 100
COc1ccc(COCC(O)CS(=O)(=O)Cc2ccc(C)cc2)cc1 (stereo unspecified) | 105
CCN(CC)C(=O)C12CCC(C)(C(=O)C1)C2(C)C (stereo unspecified) | 100
COc1ccc(CC(=O)N2c3ccccc3Sc3ccccc32)cc1OC | 100
CCc1cc(-c2[nH]ncc2Oc2ccccc2)c(O)cc1OC | 100
O=C1c2ccccc2S(=O)(=O)N1CC(O)Cn1c2ccccc2c2ccccc21 (stereo unspecified) | 100
O=C(NC1CCCC1)c1cc(=O)[nH]c2ccc(Br)cc12 | 86
O=C(C(Cc1ccccc1)N1C(=O)C2C3C=CC(C3)C2C1=O)N1CCOCC1 (stereo unspecified) | 97
Cc1ccc(OCC(=O)Nc2ccc(S(=O)(=O)N3CCCC3)cc2)cc1 | 100
CCOc1ccc(OCCCC(=O)O)cc1 | 102
Cc1ccc(S(=O)(=O)N2CCCC3(CCCCC3)C2)cc1 | 102

Filtered by structure: those above containing two or more sulfur atoms
SMILES | Vaccinia pol inh
O=C(C1Cc2ccccc2CN1S(=O)(=O)c1cccs1)N1CCCCC1 (stereo unspecified) | 97
Cc1c(C)c(C)c(CSCc2n[nH]c(=S)n2-c2ccc(F)cc2)c(C)c1C | 106
CCC(CC)C(=O)Nc1nnc(SCC(=O)Nc2ccc(F)cc2)s1 | 101
O=C(NCc1cccs1)c1cccc(S(=O)(=O)N2CCCCC2)c1 | 100
CCN1C(=O)/C(=C2/C=Cc3ccccc3N2CC)SC1=S | 98
O=C(c1cccs1)N1CCSC1=S | 90
Cc1c(C(=O)CSc2n[nH]c(=O)n2C2CC2)sc2ccc(Cl)cc12 | 103
Nc1cc(=O)n2c(n1)SCC2CS(=O)(=O)c1ccccc1 (stereo unspecified) | 98
O=C(O)CSc1ncnc2sc3c(c12)CCCC3 | 97
COC(=O)c1ccccc1NS(=O)(=O)c1c(C)nc2sccn2c1=O | 98
CCOC(=O)c1c(NC(=O)CN2C(=O)CCSc3ccccc32)sc2c1CCCC2 | 104
Cc1c(C(=O)/C=C/N(C)C)sc(=S)n1CCc1ccc(Cl)cc1 | 98

High-throughput results from PubChem.
